Bioassay records as filed in PubChem BioAssay.
PMP22 txn – PMP22 gene transcription modulation; S16 Pmp22-F2sN Schwann cells (luciferase reporters placed in the Pmp22 gene), FLuc/NLuc coincidence luminescence, 24 h; Potency, µM (doses to about 57.5 µM), for inactives: at the top dose activity change, negative = inhibition, actives largely listed as inhibitors; 43,000 tested, 2% active; AID 1508649; active = clear falling dose curves in both reporters; inconclusive = both reporters move, but less clearly or upward; inactive = either reporter flat; the % is the NLuc reporter signal; note: % is set by controls: 0 for no effect and ±100 for the full control effect; some results filed as inactive show a strong effect at the top dose
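Reporter cells (S16 Pmp22-F2sN, 500–1,000 per well) exposed to compounds for 24 h, 37C, 5% CO2; lysis with FLuc read after 10 min, then Stop&Glo and NLuc read after 10 min.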
HTT prom inh – inhibits huntingtin promoter activity. HEK293 HTT promoter firefly luciferase reporter (activity 0% = vehicle and -100% = no light), 24 h. Potency, µM (titrated, usually from 57.5 µM), for the others: at the top dose activity change, negative = inhibition, usual class: inhibitors. 48,000 tested, 0.93% active. AID 1508623; active = well fitted inhibition curve with a large enough effect; inconclusive = small, poorly fitted or top-dose-only effect; inactive = no such curve, though single readings can be large or run the other way; note: nearly all actives have a fitted effect of over 50% in size
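HEK293 Fluc reporter, 2,500 cells/well, 24 h pre-culture; cpds up to 57.5 uM final, 24 h 37 degrees C; Dual-Glo, 10 min RT; normalized vehicle = 0%, zero RLU = -100%.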
Starred values were filed as active, the others as inactive; ? = inconclusive; · = not tested or not shown; & = joins results of further samples; [ ] = remark or other dose. Potency is the fitted concentration of half-maximal effect.

Sequence of screens: PMP22 txn | HTT prom inh
- CC1CCCCN1c1c(S(=O)(=O)c2ccc(Cl)cc2)cnc2ccccc12 (centres undefined)
    ? | ?
- Cc1ccc(OCC(=O)Nc2ccc3nc(SCC(N)=O)sc3c2)cc1
    -11% | 0%
- CCN(C)C(=O)Oc1cccc([C@H](C)N(C)C)c1
    · | 12%&3%
- O=C1COc2ccc(-c3cc(-c4ccc(F)cc4)c4c(n3)-c3cc(Cl)ccc3OC4)cc2N1
    -23% | -8%
- CN(C)c1cc2c(cc1NC(=O)c1ccc(F)cc1)n(C)c(=O)n2C
    ? | -11%
- CCOc1cc(C2C(C(=O)OC)=C(C)NC3=C2C(=O)c2ccccc23)cc(Br)c1OCC (centres undefined)
    ? | ?
- COc1ccc(-c2nc3sc(CCNC(=O)C(=O)Nc4ccc(C)cc4C)c(C)n3n2)cc1
    -10% | -24%
- O=c1oc2ccc3ccccc3c2cc1-c1nnc(Nc2cccc(F)c2)s1
    -13% | 34%[activator]
- Cc1ccc(CSc2nnc(-n3c(=O)c(C#N)cc4c(=O)n5cc(C)ccc5nc43)s2)cc1
    ? | -24%
- CCOC(=O)CSc1nc2ccccc2n2c(C)nnc12
    -3% | 12%

Entries from the list above that contain sulfur:
Sequence of screens: PMP22 txn | HTT prom inh
- CC1CCCCN1c1c(S(=O)(=O)c2ccc(Cl)cc2)cnc2ccccc12 (centres undefined)
    ? | ?
- Cc1ccc(OCC(=O)Nc2ccc3nc(SCC(N)=O)sc3c2)cc1
    -11% | 0%
- COc1ccc(-c2nc3sc(CCNC(=O)C(=O)Nc4ccc(C)cc4C)c(C)n3n2)cc1
    -10% | -24%
- O=c1oc2ccc3ccccc3c2cc1-c1nnc(Nc2cccc(F)c2)s1
    -13% | 34%[activator]
- Cc1ccc(CSc2nnc(-n3c(=O)c(C#N)cc4c(=O)n5cc(C)ccc5nc43)s2)cc1
    ? | -24%
- CCOC(=O)CSc1nc2ccccc2n2c(C)nnc12
    -3% | 12%

Remaining list, next part.
Sequence of screens: PMP22 txn | HTT prom inh
- Cc1cccc(OCC(=O)Nc2cc(-c3ccccc3F)nn2-c2ccccc2)c1
    -18% | -5%
- CCOc1ccc(-n2c(=O)c3c(C)c(C(=O)N(C)C)sc3n(CC(=O)Nc3c(C)cc(C)cc3C)c2=O)cc1
    -24% | -3%
- Cc1ccc(C2c3[nH]c4ccccc4c3CCN2C(=O)CCC2CCCC2)cc1 (centres undefined)
    -19% | ?
- Cc1cc2c(cc1S(=O)(=O)Nc1cccc(C#N)c1)OCC(=O)N2
    1% | 4%
- CC(=O)c1c(C)oc2c1cc(NS(=O)(=O)c1ccc(Br)cc1)c1ccccc12
    ? | ?
- CCc1cccc(NC(=O)Cn2c(=O)n(CCCCCC(=O)NCc3ccc(F)cc3)c(=O)c3sccc32)c1
    ? | -30%
- COc1ccccc1CNC(=O)C1CCCN(c2nc3ccccc3n3cccc23)C1 (centres undefined)
    ? | ?
- Cc1c(C(=O)Nc2cccc(F)c2)sc2nc(-c3cc4ccccc4oc3=O)[nH]c(=O)c12
    -39% | 0%
- CC(C)CCn1c(=O)c2sccc2n2c(CCCC(=O)Nc3ccc(F)c(Cl)c3)nnc12
    ? | ?
- CCOc1ccc(N(C)S(=O)(=O)c2ccc3c(c2)CCCN3C(C)=O)cc1
    -46% | ?
- O=C(CSc1nc(Nc2ccc(F)cc2)c2ccccc2n1)c1ccc(F)cc1
    -37% | -24%
- Cc1cc2c(n1-c1ccc(C(=O)NCc3ccc(OC(C)C)cc3)cc1)CCCC2
    ? | -2%
- O=C(Cn1c(=O)oc2ccccc21)NCc1ccc(Cl)cc1
    7% | 9%
- Cc1cn2c(=O)cc(COC(=O)c3ccc(NC(=O)COc4ccc(C)c(C)c4)cc3)nc2s1
    -1% | -17%
- COc1cc(-n2c(=O)c3ccccc3n(Cc3cccc(Cl)c3)c2=O)cc(OC)c1OC
    ? | -26%
- O=C(NCCCN1CCN(c2ccc(F)cc2)CC1)c1ccc2nc(Cc3ccccc3)oc2c1
    16µM* | ?
- COc1cccc(CNC(=O)c2[nH]c3cc(C)ccc3c2Sc2ccccc2)c1
    ? | 27%
- COc1ccccc1N1CCN(C(=O)CN2C(=O)COc3ccc(S(=O)(=O)N4CCOCC4)cc32)CC1
    -1% | -7%
- CN(C)c1ccc(Nc2ncnc3sc4c(c23)CCCC4)cc1
    ? | 11µM*
- Cc1cccn2c(=O)cc(COc3cccc(NC(=O)Nc4cccc(Cl)c4)c3)nc12
    -12% | 9%
- COc1ccc(CN2CCc3nc(Nc4ccccc4)ncc3C2)c(OC)c1OC
    -30% | ?
- Cc1ccc(-c2csc(=Nc3ccc(F)cc3)n2Cc2ccc3c(c2)OCO3)cc1C
    -1% | ?
- COc1ccc(OCCCn2c(C3CC(=O)N(c4ccc(F)cc4)C3)nc3ccccc32)cc1 (centres undefined)
    ? | ?
- COC(=O)c1sc2cccc(F)c2c1S(=O)(=O)NCc1ccc(F)cc1
    ? | 0%
- COc1ccc(NC(=O)Cn2cc(C(=O)c3ccc(C)c(C)c3)c(=O)c3cc(OC)ccc32)cc1
    -4% | -15%
- COc1ccc(S(=O)(=O)N(CCc2ccccc2)CC(=O)Nc2cc(Cl)ccc2C)cc1
    ? | ?
- COc1cc2c(C(=O)N3CCN(c4ccc(F)cc4)CC3)cn(CC(C)C)c(=O)c2cc1OC
    -26% | -7%
- Cc1oc(-c2ccc(C(=O)Nc3cccc(C(F)(F)F)c3)cc2)nc1CSc1ccccc1
    ? | 1.8µM*
- Cc1ccc(NC(=O)Cn2ccn(Cc3ccc(Cl)cc3)c(=O)c2=O)cc1C
    -2% | -1%
- O=C(C1CCN(S(=O)(=O)c2ccc(Br)s2)CC1)N1CCN(c2ccc(F)cc2)CC1
    ? | -3%
- COc1cc(NC(=O)Cn2c(=O)n(CC3CCCO3)c(=O)c3cc(OC)c(OC)cc32)cc(OC)c1 (centres undefined)
    5% | -6%
- CCOC(=O)c1c(NC(=O)CCCOc2ccc(C(C)(C)C)cc2)sc2c1CCC2
    -4% | -9%
- CNC(=O)CN1C(=O)c2cccnc2Sc2ccccc21
    -1% | -4%
- COc1ccc(CCC(=O)NCc2nc3cccnc3n2Cc2ccccc2)cc1
    10% | 1%
- COc1ccc(-n2c(=O)c3ccccc3n(CC(=O)NCCc3ccc(OC)c(OC)c3)c2=O)cc1
    ? | -14%
- O=C(NCC(c1ccc2c(c1)OCO2)N1CCOCC1)c1c(F)cccc1F (centres undefined)
    -12% | 4%
- Cc1ccc(C(=O)N2c3nc(-c4ccco4)nn3C3(CCCCC3)[C@@H]3CCCC[C@@H]32)cc1
    -8% | -24%
- COc1cc(-c2noc(C3CC(=O)N(c4cc(C)ccc4C)C3)n2)cc(OC)c1OC (centres undefined)
    -64% | -24%
- CCN1C(C(=O)c2ccccc2)=C(OC(=O)c2ccc(OC)cc2)c2ccccc2S1(=O)=O
    -25% | ?
- Cc1ccc(-c2cn3nc(N4CCCC(C(=O)NCc5ccccc5F)C4)sc3n2)cc1 (centres undefined)
    -30% | ?
- CCOc1ccc(CNC(=O)Nc2ccc3c(c2)N(C)C(=O)c2ccccc2S3)cc1
    ? | ?
- CCOc1ccccc1NC(=O)CSc1ncc2c(n1)-c1ccccc1N(CC)S2(=O)=O
    -19% | ?
- COc1ccccc1Cn1c(CNS(=O)(=O)c2ccc(C(C)C)cc2)nc2cccnc21
    -24% | -12%
- COCCNC(=O)Cn1c(=O)n(CCCCCC(=O)NCc2ccccc2Cl)c(=O)c2sccc21
    -20% | -3%
- Cc1ccc(NC(=O)c2ccc(CN3CC(=O)N4CCCCC4C3=O)cc2)c(C)c1 (centres undefined)
    13% | -17%
- COc1ccc(-c2noc(CNC(=O)c3ccc(OC)cc3OC)n2)cc1
    6% | -11%
- CCOc1cccc2sc(N3CCN(C(=O)c4ccc5c(c4)CCCC5)CC3)nc12
    ? | ?
- COc1cc(-c2nc3ccc(C)cn3c2Nc2ccc(Cl)cc2)ccc1O
    ? | -7%
- O=C1[C@H]2CCCC[C@H]2C(=O)N1CCCCN1CCN(c2nsc3ccccc23)CC1
    · | 0%
- O=C(NCC(c1cccnc1)N1CCN(Cc2ccccc2)CC1)C(=O)Nc1ccc(Cl)cc1 (centres undefined)
    ? | ?

(more compounds)
Sequence of screens: PMP22 txn | HTT prom inh
- CCCN(CCC)CCNC(=O)CN1C(=O)COc2ccc(S(=O)(=O)N3CCOCC3)cc21
    -5% | -12%
- COc1ccccc1-n1c(=O)n(C)c2c(C(N)=O)nc(-c3cc(OC)c(OC)c(OC)c3)nc21
    18% | -14%
- COc1ccc(CN(C)c2ccc(-c3nc(-c4ccc(OC)c(OC)c4)no3)cc2[N+](=O)[O-])cc1
    -17% | -6%
- CCOc1ccc(Nc2sc(C(=O)c3cccc(OC)c3)c(N)c2S(=O)(=O)c2ccccc2)cc1
    -14% | -9%
- COc1ccc(N2CCN(C(=O)c3ccc4c(c3)N(Cc3cc(C)ccc3C)C(=O)c3ccccc3S4=O)CC2)cc1 (centres undefined)
    -114% | ?
- Cc1ccccc1CNC(=O)C1=Cc2ccccc2OC1
    9% | 16%
- COc1cccc(NC(=O)CCc2c(C)nc3ncnn3c2C)c1
    -2% | -6%
- O=C(COc1ccc(Cl)cc1)Nc1ccc2nc(SCC(=O)N3CCOCC3)sc2c1
    ? | ?
- COc1ccc(Nc2nn3c(=O)c4cc5c(cc4nc3s2)OCO5)c(OC)c1
    -5% | -15%
- COc1cc(-c2ccc(=O)[nH]n2)ccc1OC(F)F
    · | 7%
- O=c1c2cc3c(nc2ncn1Cc1ccc(Cl)cc1)CCCC3
    -8% | 2%
- CCC1CN(C(=O)N2CCC(C(=O)Nc3ccccc3F)CC2)c2ccccc2O1 (centres undefined)
    6% | -14%
- Cc1ccn2c(=O)c(C(=O)NCCc3ccccc3)c(O)nc2c1
    1% | 0%
- CCOC(=O)N1CCc2c(sc3c2c(=O)n(CCc2ccccc2)c(=O)n3CC(=O)Nc2cccc(C)c2)C1
    1% | -5%
- O=C(CCC(=O)N1CCSc2ccccc21)NCc1ccccc1Cl
    -18% | -21%
- Cc1ccc(S(=O)(=O)NC(=O)NC2CCCC2)cc1
    · | 8%
- Cc1cc(C)c2oc(-c3ccc(NC(=O)c4cc(Br)ccc4Cl)cc3)nc2c1
    -19% | ?
- COc1ccc(S(=O)(=O)Nc2ccc3c(c2)sc(=O)n3C)cc1Cl
    ? | ?
- COc1ccccc1CNC(=O)CCCn1nc(C)c2c(C)n(-c3ccc(C)cc3)nc2c1=O
    -20% | ?
- COc1ccccc1CNC(=O)CCC(=O)N1CC2CCCN2c2ccccc21 (centres undefined)
    ? | -17%
- CC(CNC(=O)CN1C(=O)COc2ccc(S(=O)(=O)N3CCCCC3)cc21)c1ccccc1 (centres undefined)
    -1% | 0%
- COc1ccc(CCNC(=O)c2c(C)oc3ncn(CC(C)C)c(=O)c23)c(OC)c1
    ? | 16%
- C=C1C(=O)[C@@]23C(CC[C@@H]1[C@H]2O)[C@@]12CO[C@]3(O)[C@@H](O)[C@@H]1C(C)(C)CC[C@@H]2O (some centres undefined)
    · | ?
- COc1ccccc1OCc1nc(-c2cccc(C)c2)no1
    19% | 69%[activator]
- Cn1c(SCC(=O)Nc2nc3ccccc3s2)ncc(C(=O)Nc2ccc(Cl)cc2)c1=O
    -14% | 4%
- O=C(CCSCc1ccccc1Cl)N1CCN(c2cccc(Cl)c2)CC1
    2% | -18%
- CS(=O)(=O)c1ncc(Cl)c(C(=O)N(Cc2ccc(Cl)cc2)Cc2ccco2)n1
    ? | ?
- CCCCS(=N)(=O)CCC(N)C(=O)O (centres undefined)
    · | -10%
- CCOc1ccccc1NC(=O)c1c(NC(=O)c2cccc(C)c2)sc2c1CCCC2
    ? | 2%
- CCOC(=O)c1cnc2c(C)c(Cl)ccc2c1Nc1ccc(C)cc1C
    -3% | -7%
- Cc1ccc(CNC(=O)c2ccc3c(c2)N(Cc2ccccc2F)C(=O)c2ccccc2S3(=O)=O)cc1
    11% | -16%
- CC1CCN(C(=O)CSc2c(C(C)C)cnc3c2c(=O)n(C)c(=O)n3C)CC1
    -31% | -8%
- CCOCCn1ccc2c(OCC(=O)Nc3cccc(F)c3)cccc2c1=O
    -6% | -31%
- Cc1ccsc1CN(C(=O)c1oc2ccc(F)cc2c1C)C1CCS(=O)(=O)C1 (centres undefined)
    ? | ?
- COc1ccc(OC)c(CCNC(=O)CN2C(=O)COc3ccc(S(=O)(=O)N4CCC(C)CC4)cc32)c1
    -19% | -25%
- Cc1cc(NC(=O)c2cc(-c3ccc(Cl)c(Cl)c3)on2)n(-c2ccccc2)n1
    -4% | -21%[11.5 µM]
- COc1ccccc1NC(=O)C1=C(C)Nc2c(C(=O)Nc3ccc(F)cc3)cnn2C1c1ccc(Cl)cc1 (centres undefined)
    2% | -27%
- COc1ccc(Cl)cc1NC(=O)c1cc2nc(-c3ccc(C)cc3)cc(C(F)(F)F)n2n1
    8% | -17%[11.5 µM]
- CCOC(=O)CCN(c1ccccc1)S(=O)(=O)c1ccc2[nH]c(=O)ccc2c1
    -19% | -36%
- CCc1ccc(CNC(=O)Cc2c(C(=O)O)c(C)cn2C)cc1
    28% | -16%
- Cc1cccc(N2CCN(C(=O)Cn3nc(C)n4cccc4c3=O)CC2C)c1 (centres undefined)
    -6% | 12%
- COc1ccc(C)cc1NC(=O)N1CCN(c2nnc(C)c3c(C)n(-c4ccccc4)nc23)CC1
    5% | 5%
